# 2A Renilla: FMDV 2A StopGo reporter, Renilla signal; Potency, µM (top dose mostly 57.5 µM), for inactives: at the highest dose signal change, negative = less light; HEK cells with a luciferase reporter of 2A StopGo recoding; 0.32% of 120,000 active; active means well fitted falling curve with a large enough effect; inconclusive means small, poorly fitted or top-dose-only effect; inactive means no such curve, though single readings can be large or run the other way; further: nearly all actives have a fitted effect of over 55% in size; overnight with compound
# 2A firefly: lowers the firefly signal of an FMDV 2A StopGo reporter; HEK cells with a luciferase reporter of 2A StopGo recoding; Potency, µM (top dose mostly 57.5 µM), inactives show at the highest dose signal change, negative = less light; 0.23% of 120,000 active; AID 1745856; active = well fitted falling curve with a large enough effect; inconclusive = small, poorly fitted or top-dose-only effect; inactive = no such curve, though single readings can be large or run the other way; further: nearly all actives have a fitted effect of over 60% in size; overnight with compound
# * hit, by the source's call; ? = inconclusive; & = joins results of further samples; [ ] = remark or other dose. On the % scale 0 is the no-effect control and ±100 the full control effect; potency means the concentration at half of the fitted maximal effect.
SMILES,2A Renilla,2A firefly
CCn1c(SCC(=O)NC2CCCCC2)nc2c(c1=O)SCC2,23%,22%
Cc1cc(NC(=O)c2nc3ccccc3nc2N2CCN(C)CC2)ccc1Br,1%,7%
O=C(Nc1cccc2ccccc12)C1CC2CCCC(C1)C2=O (stereo not given),5%,0%
CCCCCCNC(=S)Nc1cccc(Cl)c1,233%[activator],26%
CC(=O)N1CCc2c(sc3c2c(=O)n(-c2ccccc2Cl)c(=O)n3C)C1,12%,-2%
N#Cc1c(/N=C/c2c(F)cccc2F)sc2c1CCCC2,2%,0%
CCOc1ccccc1NC(=O)c1cc2cc(C)ccc2n1C,23%&48%,42%&49%[activator]
COc1ccc(/C=C/C(=O)OCc2ccccc2C#N)cc1OC,0%,25%
CCN(CC)S(=O)(=O)c1ccc(C(=O)Nc2nc3c(Cl)cc(Cl)cc3s2)cc1,-10%,-14%
Cc1cc(C(=O)NCc2ccco2)c2cccc(-c3ccccc3)c2n1,-4%,-13%
CC1(C)CC(C(CC#N)Cc2ccccc2)CCO1 (stereo not given),33%,12%
Cc1ccc(C(=O)NCC2(c3ccccc3)CC2)cc1C,40%[activator],195%[activator]
COc1ccc(-c2nc(SCC(=O)NC3CCCC3)c(-c3ccc(C)cc3)[nH]2)cc1OC,17%,0%
CC1CC(=O)Nc2cc(S(=O)(=O)NCCc3cccs3)ccc2S1 (stereo not given),111%[activator],21%
COc1ccc(C(=O)/C(=C\c2cccc(Br)c2)c2nc3ccccc3o2)cc1,?,-85%
COc1ccccc1NC(C)C(=O)c1[nH]c(C)c(C(C)=O)c1C (stereo not given),?,?
O=C(NC1CCC(C(F)(F)F)CC1)c1ccsc1 (stereo not given),-4%,0%
Cc1cccc(C(=O)NC(NC(=O)c2cccc(C)c2)c2ccccc2F)c1,41%[activator],-5%
O=C(Nc1ccc(F)cc1)c1[nH]c2ccccc2c1Cl,36%[activator],113%[activator]
Cc1scc(C(=O)Nc2ccccc2C#N)c1C,0%,57%[activator]
CCOc1cc(/C=C2/NC(=O)NC2=O)cc(Cl)c1OCc1cccc(C(=O)O)c1,13%,24%
O=C(Cn1c(=O)[nH]c2ccccc2c1=O)N1CCN(c2ccccc2)CC1,-9%,-1%
Cn1c(CC(=O)Nc2ccc(Cl)cc2)nnc1SCC(=O)NC12CC3CC(CC(C3)C1)C2,-17%,-16%
CC(C)CNC(=O)c1ccc2c(c1)NC(=O)CS2,17%,0%
Cc1ccc(C2CCN(C(=O)Nc3ccc(C)c(C)c3)C2)cc1 (stereo not given),7%,8%
C[C@H](O)[C@@H]1CN2CCc3c([nH]c4c(-c5ccc6c(c5)OCO6)cccc34)[C@@H]2C[C@@H]1N(C)C(=O)NC1CCCCC1,-11%,-6%
O=C(/C=C/c1ccc2c(c1)OCCCO2)c1ccccc1OCc1ccccc1,2%,0%
CC(C)COc1ccc(Br)cc1C(N)=O,57%[activator],37%[activator]
COc1ccc(CNC(=O)c2cc3c(=O)n(C)c4ccccc4c3n2C)c(OC)c1,-8%,-14%
O=C(O)c1ccc(CNCc2cccc3ccccc23)cc1,3%,4%
Cc1ccc(C(=O)NCC(O)c2ccc(F)c(F)c2)cn1 (stereo not given),5%,0%
COc1ccc(NC(=O)Nc2cccc(C)n2)c(OC)c1,8%,100%[activator]
COc1ccccc1NC(=O)CSc1nc(C)cc(C)c1C(=O)Nc1ccccc1,13%,15%
CCCc1cc(=O)n2[nH]c(NCc3c(F)cccc3Cl)nc2n1,-11%,35%[activator]
CC1CCCCN1S(=O)(=O)c1cccc(C(=O)OCc2nnc(-c3ccc(Cl)cc3)o2)c1 (stereo not given),5%,58%[activator]
Cc1ccc(-n2nc3cc(C)c(NC(=O)COc4ccccc4)cc3n2)cc1,-2%,3%
CS(=O)(=O)Nc1cccc(CNC(=O)CCC2CCCCC2)c1,-7%,5%
COc1ccccc1Nc1cc(C(=O)NC2CCCC2)c2ccccc2n1,10%,10%
COc1cc(/C=C(\C#N)c2nc3ccccc3[nH]2)ccc1OCc1ccccc1F,8%,136%[activator]
CS(=O)(=O)N1CCCN(c2ccc(=O)n(-c3ccccc3)n2)CC1,-3%,6%
CCN(CC)S(=O)(=O)c1ccc(N2CCOCC2)c(NC(=O)CC2CCCC2)c1,36%[activator],-6%
CCN(CC)C(=O)c1sc2c(c1C)c(=O)n(CCc1ccccc1)c(=O)n2Cc1ccc(C)cc1,51%[activator],-25%
CCOc1ccc(CNC(=O)c2ccc3c(c2)nc2n3CCCC2)cc1,102%[activator],61%[activator]
CCc1ccc(S(=O)(=O)c2cn(Cc3ccccc3)c3cc(N4CCCC4)c(F)cc3c2=O)cc1,-6%,-6%
O=C1/C(=C/c2cccc([N+](=O)[O-])c2)CCOc2ccc(F)cc21,?,14%
O=S(=O)(c1cccc(Br)c1)N1CCOCC1,-3%,-13%
COc1cc(CNCCSc2nnnn2C)ccc1OCc1ccccc1C,-2%,96%[activator]
CN(Cc1ccc(-c2ccc(Cl)cc2)o1)C(=O)CNC(=O)c1ccc(Cl)cc1Cl,-5%,32%[activator]
CCOc1ccccc1CNC(=O)CCCn1c(=O)c2cccn2c2cccnc21,-11%,-6%
CN(Cc1ccccc1F)C(=O)CN1CCN(c2oc(-c3ccco3)nc2C#N)CC1,6%,-10%
CCc1ccc(OC(=O)c2ccccc2I)cc1,14%,260%[activator]
COC(=O)c1c(-c2ccc(F)cc2)csc1NC(=O)CN1CCOCC1,23%,7%
Cc1ccc(C)c(Cn2c(N3CCC(C(=O)N4CCC(C(N)=O)CC4)CC3)nc3ccccc32)c1,-13%,-11%
Cn1nc(C(=O)OCC(=O)NC(=O)c2ccc(C(C)(C)C)cc2)c2ccccc2c1=O,-3%,6%
CCCc1cc(C(=O)Nc2cc(Cl)ccc2Cl)no1,-10%,19%
COc1ccc(S(=O)(=O)NCc2nc3nc(C)cc(C)n3n2)cc1OC,-4%,-11%
CCOc1ccc(NC(=O)CSc2nc3ccccc3c(=O)n2CCn2cc(Cl)cn2)cc1,4%,13%
CC1(C)CC(=O)C/C(=N/NC(=O)CCc2ccccc2)C1,23%,0%
CC1CCCN(C2CCN(Cc3cccc(Cl)c3)CC2)C1 (stereo not given),-5%,-11%
CCC(=O)N1CCc2cc(S(=O)(=O)CCC(=O)N3CCN(c4cccc(C)c4C)CC3)ccc21,-10%,-18%

# Continuation.
SMILES,2A Renilla,2A firefly
Cn1c(=O)c2c(nc(N3CCCCC3)n2C)n(C)c1=O,5%,19%
CCc1ccc2oc(=O)cc(CN3CCN(CCO)CC3)c2c1,2%,10%
O=C(c1ccc(Cl)cc1)N1CCCCC1CCN1CCOCC1 (stereo not given),-11%,0%
Cc1cc(N2CCC(C)CC2)nc2ccc(NC(=O)CCC(=O)N3CCN(c4ccccc4F)CC3)cc12,?,44%[activator]
Cc1ccc(NC(=O)Cn2c(=O)ccc3cc(S(=O)(=O)N4CCCC4)ccc32)cc1N(C)C,5%,-3%
CC(C)c1ccc(-c2nc3c([nH]2)c(=O)n(C)c(=O)n3C)cc1,-6%,17%
CCOC(=O)N1CCN(c2ccc(C(=O)O)cc2NS(=O)(=O)c2ccc(OC)c(Cl)c2)CC1,63%[activator],70%[activator]
CC(=O)NNC(=S)Nc1ccc(Cl)cc1Cl,6%,11%
CC(=O)c1c(C)nc(Nc2nc(C)c3cc(C)ccc3n2)nc1C,2%,0%
Nc1c(C(=O)NCc2cccs2)nnn1CC(=O)Nc1cccc(F)c1,-8%,?
Cc1ccc(N(C(C)C(=O)N2CCCC2)S(C)(=O)=O)cc1C (stereo not given),-3%,-4%
CCCn1nc(C(=O)N2CCN(C(=O)C(C)C)CC2)c2ccccc2c1=O,-1%,-1%
Cc1nn(CCCC(=O)NCc2ccc(F)cc2)c(=O)c2c1sc1ccccc12,-16%,-22%
CC1=C(c2ccc(C)c(C)c2)S(=O)(=O)N(Cc2ccc(C(=O)Nc3cc(F)ccc3F)cc2)C1=O,-8%,-11%
CNC(=O)c1ccc(-c2nc(CN3CCN(S(=O)(=O)c4ccc(C)c(C)c4)CC3)c(C)o2)cc1,-5%,0%
CC(=O)Nc1cccc(NC(=O)c2cc(-c3cccs3)nc3ccccc23)c1,19%,14%
O=C(Cc1ccc(Br)cc1)Nc1nc2c(s1)CCCC2,-23%,66%[activator]
COc1ccc(OCCC(=O)OCC(=O)NCc2ccccc2)cc1,-6%,3%
CCc1ccc(C(=O)c2cn(CC(=O)Nc3cc(F)ccc3F)c3nc(C)ccc3c2=O)cc1,1%,10%
COc1ccc(OC)c(C2C=C(c3ccc(Cl)cc3OC(F)F)Nc3nnnn32)c1 (stereo not given),62%[activator],-24%
CCCCCCc1cc2cc(C(C)=O)c(=O)oc2cc1O,?,?
COc1ccc(-n2nnnc2C2CCN(S(=O)(=O)c3cccc(Cl)c3C)CC2)cc1,-11%,-22%
CCCc1cc(=O)[nH]c(SCc2noc(-c3ccc(C)cc3)n2)n1,0%,39%[activator]
COC(CNC(=S)NC1CCCC1)OC,30%,8%
CCOC(=O)Cn1c(=O)n(C2CCCCC2)c2nc(-c3cccc(OC)c3)nc(C(N)=O)c21,-10%,-5%
CCN(Cc1ccccc1)C(=O)c1cn(-c2cccc(Cl)c2)nn1,105%[activator],228%[activator]
COc1ccc(N2CC(NC(=O)C(=O)c3c[nH]c4ccccc34)CC2=O)cc1 (stereo not given),0%,-20%
Cc1ccccc1-c1noc(-c2ccccc2OCC(=O)Nc2cccc([N+](=O)[O-])c2)n1,-6%,-22%
COc1ccc2c(C)c(CC(=O)N3CCC(O)(c4ccc(Cl)cc4)CC3)c(=O)oc2c1,1%,2%
COc1ccc(-c2nc(SCC(=O)N3CCCCC3C)n[nH]2)cc1 (stereo not given),-21%,1%
CCCOc1cccc(C(=O)Nc2scc(-c3ccc(OC)c(OC)c3)c2C(=O)OC)c1,-4%,1%
CCOC(=O)COc1ccc2c(=O)c(Oc3ccccc3OCC)coc2c1,1%,-4%
Cc1ccccc1CSc1ccc(-c2cccs2)nn1,-13%,90%[activator]
N#Cc1nc(-c2ccc(S(=O)(=O)N3CCCC3)cc2)oc1N1CCN(c2cccc(Cl)c2)CC1,-4%,-9%
COC(=O)C(C)Sc1ccccc1C(=O)O (stereo not given),0%,5%
Cc1ccsc1C(=O)NC(CC(=O)O)c1cccs1 (stereo not given),-2%,0%
Cc1ccc2onc(CC(=O)Nc3ccc(C(C)C)cc3)c2c1,1%,23%
CCOc1ccc2c(=O)c(Oc3ccccc3OCC)c(C)oc2c1,70%[activator],184%[activator]
Cc1cc(C)c(NC(=O)CCN2C(=O)c3ccccc3Sc3ncccc32)c(C)c1,116%[activator],4%
CN(C)C(=O)CN1CCN(CC2CCCCC2)CC1,3%,-8%
CCOc1ccc(NC(=O)C2CCN(c3ccc(C#N)cn3)CC2)cc1S(=O)(=O)N1CCCCC1,129%[activator],-11%
O=C(CSc1nnc(N2CCOCC2)n1-c1cccc(F)c1)N(C1=CCCCC1)C1CC1,-7%,-6%

# Filtered by structure: those above with fluorine (18)
SMILES,2A Renilla,2A firefly
N#Cc1c(/N=C/c2c(F)cccc2F)sc2c1CCCC2,2%,0%
O=C(NC1CCC(C(F)(F)F)CC1)c1ccsc1 (stereo not given),-4%,0%
Cc1cccc(C(=O)NC(NC(=O)c2cccc(C)c2)c2ccccc2F)c1,41%[activator],-5%
O=C(Nc1ccc(F)cc1)c1[nH]c2ccccc2c1Cl,36%[activator],113%[activator]
Cc1ccc(C(=O)NCC(O)c2ccc(F)c(F)c2)cn1 (stereo not given),5%,0%
CCCc1cc(=O)n2[nH]c(NCc3c(F)cccc3Cl)nc2n1,-11%,35%[activator]
COc1cc(/C=C(\C#N)c2nc3ccccc3[nH]2)ccc1OCc1ccccc1F,8%,136%[activator]
CCc1ccc(S(=O)(=O)c2cn(Cc3ccccc3)c3cc(N4CCCC4)c(F)cc3c2=O)cc1,-6%,-6%
O=C1/C(=C/c2cccc([N+](=O)[O-])c2)CCOc2ccc(F)cc21,?,14%
CN(Cc1ccccc1F)C(=O)CN1CCN(c2oc(-c3ccco3)nc2C#N)CC1,6%,-10%
COC(=O)c1c(-c2ccc(F)cc2)csc1NC(=O)CN1CCOCC1,23%,7%
Cc1cc(N2CCC(C)CC2)nc2ccc(NC(=O)CCC(=O)N3CCN(c4ccccc4F)CC3)cc12,?,44%[activator]
Nc1c(C(=O)NCc2cccs2)nnn1CC(=O)Nc1cccc(F)c1,-8%,?
Cc1nn(CCCC(=O)NCc2ccc(F)cc2)c(=O)c2c1sc1ccccc12,-16%,-22%
CC1=C(c2ccc(C)c(C)c2)S(=O)(=O)N(Cc2ccc(C(=O)Nc3cc(F)ccc3F)cc2)C1=O,-8%,-11%
CCc1ccc(C(=O)c2cn(CC(=O)Nc3cc(F)ccc3F)c3nc(C)ccc3c2=O)cc1,1%,10%
COc1ccc(OC)c(C2C=C(c3ccc(Cl)cc3OC(F)F)Nc3nnnn32)c1 (stereo not given),62%[activator],-24%
O=C(CSc1nnc(N2CCOCC2)n1-c1cccc(F)c1)N(C1=CCCCC1)C1CC1,-7%,-6%

# The list is partial; rates above refer to the full screens.
